Screens: PubChem BioAssay, National Center for Advancing Translational Sciences (NCATS)
LT uptake inh: inhibitors of anthrax lethal toxin internalization; Cells, anthrax lethal toxin internalization, FRET ratio (460/530); Potency, µM (top dose mostly 40 µM), inactives show at the highest dose activity change, negative = inhibition, most hits filed as inhibitors; 70,000 compounds, 0.67% hits; active = well fitted falling ratio curve with the 530 nm signal flat; inconclusive = other ratio curves, or a change in one channel alone; inactive = flat curves in the ratio and both channels; the % refers to the ratio; further: on the % scale 0 is the no-effect control and ±100 the full control effect; nearly all actives have a fitted effect of over 50% in size; tested in ME-180 cells; beta-lactamase reporter
Prx2 Sm inh: blocks S. mansoni peroxiredoxin 2 enzymatic activity. 65,000 compounds, 0.07% hits. S. mansoni Prx2 activity coupled to TGR/GSH (TGR is thioredoxin glutathione reductase), NADPH fluorescence loss, qHTS; some inactives read as strong as hits. AID 448. Potency, µM; active means full or partial inhibition curve with a strong effect at the top dose; inconclusive means weaker partial or single-point curve; inactive means no accepted curve; further: series up to 57 µM; many of its hits are not listed in these tables
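Prx2 inhibition was measured as reduced NADPH consumption when electrons flowed from NADPH through TGR and glutathione to Prx2 and H2O2. Plates were read kinetically over 8 min; enzyme reagents were held at 4 deg C during dispensing.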
* hit, by the source's call; ? = inconclusive; . = not tested or not shown; [ ] = dose if it differs, or a comment. Potency means the concentration at half of the fitted maximal effect. This is a subset; rates above refer to the full screens.

SMILES | LT uptake inh | Prx2 Sm inh
CO[C@H]1COC(=O)C/C=C\[C@H](C)[C@@H](OC)COC(=O)[C@@H](C)NC(=O)C/C=C\[C@@H]1C | 2.9%[8 µM] | .
O=C(NCCCN1CCOCC1)C(C(=O)c1ccccc1)n1ccccc1=O (stereo not given) | -1.9% | .
CCC(C)(C)n1nnnc1C(c1ccc(O)c(OC)c1)N1CCN(c2nc3ccccc3s2)CC1 (stereo not given) | -32.6% | >57
Cn1cccc1C(=O)NC(=O)CSc1nc2ccccc2s1 | -4.0% | >57
Cc1cc2c(=O)n(C)c(SCC(=O)c3cc4ccccc4o3)nc2s1 | 7.1% | >57
O=C(COC(=O)Cc1cn2ccsc2n1)NCc1ccc2c(c1)OCO2 | -0.2% | >57
COc1cc(CN2C(=O)NC(=O)C3(Cc4cc(C)ccc4N(C)C3)C2=O)cc(OC)c1 (stereo not given) | 3.3% | >57
O=C(NCCCn1ccnc1)c1noc2c1CCCC2 | 2.4% | >57
CN1CCN(c2ccccc2NC(=O)Cc2cn(C)c3ccccc23)CC1 | -10.9% | >57
Cn1c(C(=O)OC(C(=O)NC2CCCC2)c2ccncc2)cc2sccc21 (stereo not given) | -6.5% | >57
O=C(Nc1ccc2nn(-c3ccccc3)nc2c1)c1ccc(Br)o1 | -17.0% | >57
CCC1(C)C2(C#N)C(N)=NC(OC)(OC)C12C#N (stereo not given) | -4.3% | .
CCS(=O)(=O)N1Cc2ccccc2CC1C(=O)Nc1nc2ccccc2[nH]1 (stereo not given) | -5.7% | >57
COc1ccccc1-n1nc(C(=O)Nc2ccc3c(c2)OCO3)c2ccccc2c1=O | 6.4% | >57
CN(C)Cc1nc2ccccc2c(=O)n1Cc1nc(C(C)(C)C)cs1 | -3.0% | >57
COc1cccc(C2CC(c3ccccc3)Nc3nc(N)nn32)c1 (stereo not given) | 4.2% | >57
O=C(Nc1ccccc1N1CCCCC1)c1cccs1 | ? | >57
O=C(O)[C@H](Cc1ccccc1)N1C(=O)c2ccccc2C1=O | -9.6%[8 µM] | >57
Nc1ccccc1SCc1cn2cccnc2n1 | -14.6% | >57
CCOC(=O)CSc1nc(-c2ccc(OC)cc2)ns1 | ? | >57
COCc1nnc(NC(=O)CCc2ccccc2)s1 | -13.4% | >57
COc1cccc(OCCCCSc2ncccn2)c1 | -18.9% | .
COC(=O)C(C(=O)OC)[C@@H]1CCCC(=O)C1 | 8.8%[8 µM] | .
Cn1c(=O)n(C)c2cc(CN3C(=O)OC(C)(C)C3(C)O)ccc21 (stereo not given) | 3.2% | >57
O=C(CCSc1nnc2ccccn12)Nc1ccc(F)cc1 | 3.5% | >57
Oc1ccc(Nc2nc(NCC3CCCO3)c3ccccc3n2)cc1 (stereo not given) | 1.6% | >57
O=C1c2ccccc2C(=O)C1c1ccncc1 | ? | .
O=C(Nc1ccccc1)c1cccc(-c2nnc(-c3ccccc3)o2)c1 | -4.2% | >57
COc1ccc(CCNC(=O)c2ccc3c(=O)n(Cc4ccco4)c(=S)[nH]c3c2)cc1OC | -16.3% | >57
COc1ccc(N(C(=O)c2ccccc2OC)C2C=CS(=O)(=O)C2)c(OC)c1 (stereo not given) | -2.9% | >57
Cc1cc(C(=O)N2CCc3ccccc32)c2ccccc2n1 | -19.1% | >57
CCCn1c(=O)[nH]c(=O)c2c1nc(-c1ccc3c(c1)OCCO3)n2CCN1CCOCC1 | 5.6% | >57
CCCCCCC1C(C#N)=C(N)OC2=C1C(=O)CC(C)(C)C2 (stereo not given) | -1.0% | >57
O=S(=O)(Cc1ccc(Cl)cc1)N1CCN(Cc2ccccc2)CC1 | 3.0% | >57
O=C(NCc1ccco1)C1CCCN(S(=O)(=O)c2cnc[nH]2)C1 (stereo not given) | -8.5% | >57
Cc1ccccc1Nc1nc(N)nc(COC(=O)CCS(=O)(=O)c2ccccc2)n1 | -9.2% | >57
Nc1ccc2oc(CCc3ccccc3)nc2c1 | -23.0% | >57
CN(C(=O)c1ccccc1Cl)C1CCCCC1 | -8.7% | >57
Fc1ccccc1N1CCN(C(c2ccccn2)c2nnnn2C2CCCCC2)CC1 (stereo not given) | 7.5% | >57
Cn1cccc1Cc1nnc(SCC(=O)NC2CCCCC2)n1CCc1ccccc1 | -2.2% | >57
O=C(Cn1nc(Cc2ccncc2)c2ccccc2c1=O)N1CCN(C(=O)c2ccco2)CC1 | 2.5% | >57
CC(C)(CO)NS(=O)(=O)c1ccc2c(c1)oc(=O)c1cc(S(=O)(=O)NC(C)(C)CO)ccc12 | . | >57
CC(C)(O)C#Cc1ccc(C(=O)N2CCC(C(N)=O)(N3CCCCC3)CC2)cc1 | . | >57
O=C(CCNS(=O)(=O)c1cccc2nsnc12)N1CCN(c2ccccn2)CC1 | -7.0% | >57
Cc1ccc(C)c(-n2c(CNc3ccc(F)cc3)nnc2SCC(N)=O)c1 | 3.8% | >57
COc1ccc(C2C(C(C)=O)=C(C)N=c3s/c(=C\c4ccco4)c(=O)n32)c(OC)c1 (stereo not given) | ? | .
Nc1nc(NCc2cccs2)nn1-c1ccccc1 | ? | >57
COc1ccc(C(=O)c2coc3ccc(O)c(CN4CCCC4)c23)cc1 | 13.6% | >57
Cc1cc(C)c(C)c(S(=O)(=O)NCc2ccco2)c1C | -13.0% | >57
CCOC(=O)c1c(C)[nH]c(C(=O)CSc2nc3ccccc3o2)c1C | -9.0% | >57
(next part)
SMILES | LT uptake inh | Prx2 Sm inh
O=C(NCc1cccnc1)c1ccc(COc2ccc3c(c2)CCC3)o1 | -8.6% | >57
O=C(Nc1cccc(F)c1)C1CC(=O)N(c2ccc(Cl)cc2)C1 (stereo not given) | -22.1% | >57
CC(=O)c1c(C)[nH]c(C(=O)N2CCc3ccccc3C2)c1C | ? | >57
O=C(Nc1ccc2c(c1)oc1ccccc12)c1ccc2c(c1)OCO2 | ? | >57
O=C1CC(C(=O)N2CCC3(CC2)OCCO3)CN1CCc1ccccc1 (stereo not given) | -6.6% | >57
CCN(CC)S(=O)(=O)c1ccc2c(c1)c(=O)c(C(=O)N1CCc3ccccc3C1)cn2C | 8.1% | >57
CCCC[C@H](CC)CN1CN(C[C@@H](CC)CCCC)CC(C)(N)C1 | -0.2%[3.58 µM] | >57
COc1cc(-c2nnc3sc(-c4cccs4)nn23)cc(OC)c1OC | 2.9% | .
CN1CCN(c2nc3c(c(=O)n(C)c(=O)n3C)n2CCSc2nc3ccccc3s2)CC1 | 16.3% | >57
COc1ccc(C(=O)CSc2nnc(CNC(=O)c3ccc(OC)cc3)n2C)cc1 | 10.7% | >57
O=C(O)c1cccc(OCCO)c1 | -5.5%[8 µM] | >57
CC(C)CCOc1cccc(OCC(=O)NC2CCS(=O)(=O)C2)c1 (stereo not given) | -5.9% | >57
CC(C)Cc1cc(C(=O)Nc2cc(Br)ccc2O)no1 | ? | >57
COc1ccc(N2CCN(S(=O)(=O)c3ccc(OC)cc3)CC2)cc1 | -13.8% | >57
CC(C)NC(=O)CSc1nnc(-c2ccc(C(C)(C)C)cc2)n1C | -7.1% | >57
O=C(O)c1[nH]c2ccc(Cl)cc2c1CC(=O)N1CCN(c2ccccc2)CC1 | 6.5% | >57
CCn1c(SCC(=O)O)nnc1-c1ccccc1 | 7.2% | >57
CCCn1c2c(c(O)c(C(=O)Nc3ccccn3)c1=O)CCCC2 | 3.8% | >57
CC(=O)N(Cc1cc(=O)[nH]c2ccccc12)c1ccc(C)cc1 | -29.9% | >57
O=C(O)c1ccccc1C(=O)NCc1ccccc1 | -4.6% | .
C=CCOc1nc(N2CCCC2)nc(N2CCCC2)n1 | -0.2% | >57
COc1cccc(C(=O)CSc2nnc(-c3cccs3)o2)c1 | -4.6% | >57
O=C1COC(c2ccccc2O)=NN1CCCN1CCCC1 | ? | >57
CC1(C)CC(=O)C2=C(C1)OC(N)=C(C#N)C2CCc1ccccc1 (stereo not given) | ? | >57
COc1ccc(CCNC(=O)NC2CCCCC2)cc1OC | -1.4% | >57
CCCc1[nH]nc2c1C(Cc1ccccc1)C(C#N)=C(N)O2 (stereo not given) | -18.5% | >57
CC(=O)c1c(C)[nH]c(C(=O)OCC(=O)NCCc2ccc(F)cc2)c1C | 5.8% | >57
CC(C)C(C(=O)NC1CCCCC1)N(CC1CCCO1)C(=O)CNS(=O)(=O)c1ccc(F)cc1 (stereo not given) | -7.7% | >57
CC(C)CN1C(=O)c2ccc(C(=O)Nc3ccncc3)cc2C1=O | 2.0% | >57
Cc1ccccc1OCC(=O)N(Cc1cccs1)C1CCS(=O)(=O)C1 (stereo not given) | -1.6% | >57

3 structures out of the list, sorted by number of heavy atoms, largest number first:
SMILES | LT uptake inh | Prx2 Sm inh
COc1ccccc1-n1nc(C(=O)Nc2ccc3c(c2)OCO3)c2ccccc2c1=O | 6.4% | >57
Cc1ccccc1Nc1nc(N)nc(COC(=O)CCS(=O)(=O)c2ccccc2)n1 | -9.2% | >57
COc1cc(-c2nnc3sc(-c4cccs4)nn23)cc(OC)c1OC | 2.9% | .

Retrieved one by one from the list above, 4 records:
SMILES | LT uptake inh | Prx2 Sm inh
COc1ccc(CCNC(=O)c2ccc3c(=O)n(Cc4ccco4)c(=S)[nH]c3c2)cc1OC | -16.3% | >57
Fc1ccccc1N1CCN(C(c2ccccn2)c2nnnn2C2CCCCC2)CC1 (stereo not given) | 7.5% | >57
Cc1cc(C(=O)N2CCc3ccccc32)c2ccccc2n1 | -19.1% | >57
CCCc1[nH]nc2c1C(Cc1ccccc1)C(C#N)=C(N)O2 (stereo not given) | -18.5% | >57

More compounds follow.
SMILES | LT uptake inh | Prx2 Sm inh
CCOc1cc(C(=O)Nc2ccc(N3CCN(S(C)(=O)=O)CC3)cc2)cc(OCC)c1OCC | 3.3% | >57
CC(C)C(=O)N(Cc1cc(=O)[nH]c2ccccc12)c1ccccc1 | 4.6% | >57
c1coc(-c2nc(-c3ccco3)c(-c3ccco3)nc2-c2ccco2)c1 | ? | >57
CCn1c(SCC(=O)c2ccccc2)nnc1-c1ccoc1C | -14.2% | >57
CC1=C(C(N)=O)C(c2cccc(O)c2)n2nc(CCCO)nc2N1 (stereo not given) | 0.3% | >57
COc1ccccc1C1N(c2ccc(F)cc2)C(=O)C2CCCN21 (stereo not given) | -2.3% | >57
COCCN1CN=C(Nc2nc3ccccc3s2)NC1 | . | >57
CCCN1Cc2cccc(C(=O)NCc3cccs3)c2C1=O | 19.2% | >57
CC(=O)N=c1sc2cc(C)ccc2n1C | -1.6% | >57
COc1cccc2c1[C@H](CO)N1[C@H](C#N)[C@@H]3C[C@H](C(=O)O)[C@@H]([C@@H]1C2)N3C | -11.2%[8 µM] | >57
COc1cc([C@H](O)CO)ccc1O | -7.1% | >57
Nc1ncnc2c1ncn2[C@@H]1O[C@@H](COP(=O)(O)CP(=O)(O)OP(=O)(O)O)[C@H](O)[C@@H]1O | 4.7% | >57
CCOc1ccc(NC(=O)CN2CCN(CC(=O)Nc3ccc(C(=O)OC)cc3)CC2)cc1 | ? | >57
CCCCCCCCC1CO1 (stereo not given) | 1.4% | .
Cc1cc(Nc2cccc(C)c2C)n2ncnc2n1 | -1.0% | >57
O=C(c1cc2ccccn2n1)N1CCN(c2cccc(C(F)(F)F)c2)CC1 | 5.1% | >57
Cc1ccc(CCNC(=O)C2CCN(S(=O)(=O)N3CCCC3)CC2)cc1 | ? | .
CCn1cc(C2=NC(c3ccccc3)CO2)c2ccccc21 (stereo not given) | ? | >57
CCOC(=O)c1nnn(-c2nonc2N)c1CN1CCc2ccccc2C1 | 1.1% | >57
CC1CCN(C(=O)c2ccc(NS(C)(=O)=O)cc2)CC1 | -7.5% | >57
COC(=O)c1ccccc1S(=O)(=O)N(Cc1ccco1)Cc1cc2cc(OC)ccc2[nH]c1=O | -11.7% | >57
Cc1cc(C(=O)Nc2cccnc2)cs1 | -13.4% | >57
CC1CCCC(NC(=O)c2ccc3c(=O)n(CC4CCCO4)c(=O)[nH]c3c2)C1C (stereo not given) | -14.9% | >57
CCN(CC)C(=O)c1sc(N)c(C#N)c1C | 0.8% | .
CC(=O)c1ccc(NC(=O)CCNS(=O)(=O)c2cccc3nonc23)cc1 | -6.3% | >57
C=CCOC(=O)C1=C(C)NC(=O)NC1/C=C/c1ccccc1 (stereo not given) | -7.4% | >57
CCCCC1CCC(c2nc(-c3cccnc3)no2)CC1 (stereo not given) | ? | >57
C=C1CSc2nc(=O)c3c4c(sc3n21)CCC4 | 12.5% | >57
Cc1ccc(Nc2nc(C(=O)NCc3ccco3)cs2)cc1 | ? | >57
COc1ccc(Cl)cc1S(=O)(=O)N1CCN(Cc2ccc3c(c2)OCO3)CC1 | ? | >57

5 entries from above, reformatted:
Sequence of screens: LT uptake inh | Prx2 Sm inh
O=C(CCNS(=O)(=O)c1cccc2nsnc12)N1CCN(c2ccccn2)CC1
 : -7.0% | >57
Cc1cc(Nc2cccc(C)c2C)n2ncnc2n1
 : -1.0% | >57
COc1ccc(C(=O)CSc2nnc(CNC(=O)c3ccc(OC)cc3)n2C)cc1
 : 10.7% | >57
C=C1CSc2nc(=O)c3c4c(sc3n21)CCC4
 : 12.5% | >57
Cn1c(=O)n(C)c2cc(CN3C(=O)OC(C)(C)C3(C)O)ccc21 (stereo not given)
 : 3.2% | >57

Remaining list, next part:
SMILES | LT uptake inh | Prx2 Sm inh
Cn1c(SCc2nnc3n2CCCCC3)nc2ccccc21 | 5.9% | >57
CC(C)CC(NC(=O)OC(C)(C)C)C(=O)NC(C(=O)NC(C)C(N)=O)C(C)C (stereo not given) | 7.8% | >57
c1ccc2cc(C3=NCCN3)ncc2c1 | ? | >57
CCCCCCn1c(O)c(C=NC2CCCCC2N)c(=O)[nH]c1=O (stereo not given) | -19.4% | >57
O=S(=O)(NC1CCCC1)c1ccccc1Cl | -1.2% | >57
